From PubChem BioAssay
RE007 growth inh = less growth of the S. pombe RE007 Vpr strain; S. pombe RE007 Vpr strain, BacTiter-Glo ATP luminescence, 24 h; control for the full effect not named in the record; Potency, µM (top dose mostly 92.2 µM), for inactives: top-dose activity change, negative = less growth; 360,000 compounds, 0.21% hits; AID 651644; active = well fitted falling curve with a large enough effect; inconclusive = small, poorly fitted or top-dose-only effect; inactive = no such curve, though single readings can be large or run the other way;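 also: % is scaled to controls: 0 for no effect and ±100 for the full control effect; nearly all actives have a fitted effect of over 50% in size; the assay follows cell death caused by Vpr and the record does not say whether a fall means rescue or toxicity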
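Fission yeast RE007 carrying one integrated HIV-1 vpr copy, seeded at OD 0.01 in PMG+AL medium with 23 nL pinned compound. Grown 24 h at 30 degrees; viability read by BacTiter-Glo luminescence after 5 min.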
Cruzain Triton = cruzain (T. cruzi) inhibition with detergent; P25779; purified cruzain, Z-FR-AMC fluorescence, 0.01% Triton; Potency, µM, without a hit: max response, negative = inhibition, usual class: inhibitors; 200,000 compounds, 0.43% hits; active = well fitted curve in the direction sought with a large enough effect; inconclusive = small, poorly fitted or top-dose-only effect, or another doubt; inactive = no such curve, though single readings can be large; an effect the other way counts as inactive or inconclusive;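 also: plate controls were neutral wells for no effect and buffer without enzyme for full effect; nearly all actives have a fitted effect of over 40% in size; top concentration of the series not given in the record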
Target sequence (P25779 123-467 limits assumed): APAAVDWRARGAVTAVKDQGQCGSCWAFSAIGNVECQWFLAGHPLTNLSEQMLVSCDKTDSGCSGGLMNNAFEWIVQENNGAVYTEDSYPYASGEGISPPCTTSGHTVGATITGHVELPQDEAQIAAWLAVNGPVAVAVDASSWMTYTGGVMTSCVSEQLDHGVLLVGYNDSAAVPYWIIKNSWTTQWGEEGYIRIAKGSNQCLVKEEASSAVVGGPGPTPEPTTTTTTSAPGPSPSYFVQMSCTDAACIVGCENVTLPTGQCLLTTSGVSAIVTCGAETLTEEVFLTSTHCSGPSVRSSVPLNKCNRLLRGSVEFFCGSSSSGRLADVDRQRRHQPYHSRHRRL
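Read-out: AMC fluorescence (360 nm excitation, 450 nm emission), four reads over 2 min, first-to-third difference used. Conditions: cruzain 1.5 nM, Z-FR-AMC 2 uM, pH 5.5 acetate, 5 mM DTT, 0.01% Triton X-100.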
Cruzain inh noDet = cruzain (T. cruzi) inhibition without detergent; purified cruzain, Z-FR-AMC fluorescence, no detergent; Potency, µM, without a hit: max response, negative = inhibition, hits mostly inhibitors; 200,000 compounds, 2.3% hits; active = well fitted curve in the direction sought with a large enough effect; inconclusive = small, poorly fitted or top-dose-only effect, or another doubt; inactive = no such curve, though single readings can be large; an effect the other way counts as inactive or inconclusive;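 also: plate controls were enzyme without inhibitor for no effect and buffer without enzyme for full effect; nearly all actives have a fitted effect of over 40% in size; top concentration of the series not given in the record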
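Purified cruzain at 1.5 nM, pre-incubated 15 min with compound at room temperature in 100 mM sodium acetate pH 5.5, 5 mM DTT, 0.00005% Triton X-100. Reaction started with 2 uM Z-FR-AMC; AMC fluorescence increase over 60 s gives rate.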
Lassa entry inh = inhibitors of Lassa virus binding or cell entry; Potency, µM (titrated, usually from 37.9 µM), for inactives: at the top dose activity change, negative = inhibition, actives largely listed as inhibitors; Lassa virus pseudotype entry inhibition, cell reporter; control for the full effect not named in the record; 300,000 compounds, 1.2% hits; active means well fitted inhibition curve with a large enough effect; inconclusive means small, poorly fitted or top-dose-only effect, or effect the other way; inactive means flat fitted curve, though single readings scatter; tested in HEK293 cells; also: % is scaled to controls: 0 for no effect and ±100 for the full control effect; nearly all actives have a fitted effect of over 50% in size; luciferase read-out
2A StopGo = FMDV 2A StopGo reporter, luciferase signal | human cells with a luciferase reporter of 2A StopGo recoding; control for the full effect not named in the record | Potency, µM (highest dose often 57.9 µM), inactives show top-dose signal change, negative = less light | 410,000 compounds, 1.2% hits; active = well fitted falling curve with a large enough effect; inconclusive = small, poorly fitted or top-dose-only effect; inactive = no such curve, though single readings can be large or run the other way; tested in HEK293T cells; also: % is scaled to controls: 0 for no effect and ±100 for the full control effect; nearly all actives have a fitted effect of over 45% in size; luciferase light after 4 h
NS1 function inh = inhibitors of influenza NS1 protein function. S. cerevisiae slowed by influenza A NS1, growth recovery by OD600. Potency, µM (highest dose often 46.1 µM), for inactives: top-dose activity, positive = more growth. 270,000 compounds, 0.4% hits; also: actives are rising curves; nearly all actives have a fitted effect of over 50% in size
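Recovery from NS1-induced slow growth read by OD600 in budding yeast switched to galactose assay medium (pH 6.0, -URA) at 1:100 dilution. Compound 23 nl per well; the matching strain lacking NS1 serves as control.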
MARV entry inh = inhibitors of Marburg virus binding or cell entry; Marburg virus pseudotyped entry inhibition, cell reporter; control for the full effect not named in the record; about a third of the inactives were read at about 46 µM; Potency, µM (titrated, usually from 37.8 µM), without a hit: at the highest dose activity change, negative = inhibition, most hits filed as inhibitors; 300,000 compounds, 1.8% hits; AID 540276; active = well fitted inhibition curve with a large enough effect; inconclusive = small, poorly fitted or top-dose-only effect, or effect the other way; inactive = flat fitted curve, though single readings scatter; tested in HEK293 cells; about a fifth of its hits are not listed in these tables; also: % is scaled to controls: 0 for no effect and ±100 for the full control effect; luciferase read-out
SARS PLP yeast = blocks SARS-CoV papain-like protease in a yeast assay. S. cerevisiae expressing SARS-CoV PLpro, growth rescue; control for the full effect not named in the record. Potency, µM (doses to about 32.9 µM), for the others: top-dose activity, positive = growth rescue. 330,000 compounds, 0.19% hits; also: 0% is about no effect; nearly all actives have a fitted effect of over 55% in size; growth read by luminescence after 48 h
Starred values were filed as active, the others as inactive; ? = inconclusive; / = no result given; & = joins results of further samples; [ ] = another dose, or the depositor's remark. Unless noted, calls follow the shape of the dose curve; as a rule, active means well fitted rising curve with a large enough effect; inconclusive means small, poorly fitted or top-dose-only effect; inactive means no such curve, though single readings can be large or run the other way. Potency is read from the fitted curve at half-maximal effect. Outcome played no part in choosing rows. Share with any hit: about 4.7%.

SMILES	RE007 growth inh	Cruzain Triton	Cruzain inh noDet	Lassa entry inh	2A StopGo	NS1 function inh	MARV entry inh	SARS PLP yeast
COc1cccc(CC2(CO)CCCN(Cc3ccc(-c4ccco4)cc3)C2)c1 (stereo unspecified)	1%	/	/	-10%	-13%	8%	?	-1%
CN(C)S(=O)(=O)c1ccc(C(=O)Nc2cc3c(cc2C(=O)O)OCCCO3)cc1	17%	/	/	-19%	66%[activator]	19%	0%[46.1 µM]	-16%
CCC1CCCCN1C(=O)CSc1nnc(N)s1 (stereo unspecified)	-8%	/	/	-5%[46.1 µM]	12%	/	-15%[46.1 µM]	0%
COC(=O)C(C(=O)OC)C(C[N+](=O)[O-])c1ccc(OC)cc1 (stereo unspecified)	-6%	0.9%	-3%	-22%	2%	4%	15%	-2%
CCCCNc1ccc(S(N)(=O)=O)cc1[N+](=O)[O-]	/	-3.2%	6%	-12%	/	2%	3%	4%
O=C(NCC(c1cccnc1)N1CCOCC1)Oc1ccccc1 (stereo unspecified)	2%	0.8%	5%	2%	8%	-8%	8%	-20%
NC(=O)CSc1c[nH]c2ccccc12	20%	-1.3%	-3%	8%	-4%	0%	1%&1%	-1%
CC(C)c1ccc(NC(=O)CSC2=Nc3ccccc3C3=NC(CC(=O)NCc4cccs4)C(=O)N23)cc1 (stereo unspecified)	/	-6.8%	?	-26%[46.1 µM]	13%	/	/	/
COc1cc(C2N=C(c3ccccc3)NO2)cc(Br)c1O (stereo unspecified)	-2%	-3.4%	-23%	?	47%[activator]	-26%	9%	-10%
CC(=O)N1CCc2c(sc3c2c(=O)n(Cc2ccccc2)c(=O)n3Cc2ccc(C)cc2)C1	/	-0.3%	-2%	/	2%	/	?	/
CCCCCn1c(=O)c(C(=O)Nc2ccccc2Cl)c(O)c2ccccc21	2%	/	/	/	58%[activator]	1%	/	2%
Cc1[nH]c2ccccc2c1NC(=O)CN1CCN(C(=O)c2ccco2)CC1	-6%	/	/	-1%	4%	-1%	-5%[14.2 µM]	-1%

5 structures out of the list, ordered by length of the SMILES, low to high.
SMILES	RE007 growth inh	Cruzain Triton	Cruzain inh noDet	Lassa entry inh	2A StopGo	NS1 function inh	MARV entry inh	SARS PLP yeast
CCC1CCCCN1C(=O)CSc1nnc(N)s1 (stereo unspecified)	-8%	/	/	-5%[46.1 µM]	12%	/	-15%[46.1 µM]	0%
O=C(NCC(c1cccnc1)N1CCOCC1)Oc1ccccc1 (stereo unspecified)	2%	0.8%	5%	2%	8%	-8%	8%	-20%
CCCCNc1ccc(S(N)(=O)=O)cc1[N+](=O)[O-]	/	-3.2%	6%	-12%	/	2%	3%	4%
COC(=O)C(C(=O)OC)C(C[N+](=O)[O-])c1ccc(OC)cc1 (stereo unspecified)	-6%	0.9%	-3%	-22%	2%	4%	15%	-2%
COc1cccc(CC2(CO)CCCN(Cc3ccc(-c4ccco4)cc3)C2)c1 (stereo unspecified)	1%	/	/	-10%	-13%	8%	?	-1%

Going on with the list.
SMILES	RE007 growth inh	Cruzain Triton	Cruzain inh noDet	Lassa entry inh	2A StopGo	NS1 function inh	MARV entry inh	SARS PLP yeast
Cc1cc(C)cc(NC(=O)CSc2nc(=O)n(Cc3ccccn3)c3c2CCC3)c1	/	-2.5%	-12%	-2%[46.1 µM]	-1%	/	/	/
CSCC[C@@H](C(=O)Nc1ccc2c(c1)OCCO2)N1Cc2ccccc2C1=O	6%	7.3%	-3%	/	32%[activator]	-4%	/	10%
CCn1ncc(CN2CCN(Cc3cccc(OC)c3)C(CCO)C2)c1C (stereo unspecified)	-2%	/	/	5%[46.1 µM]	2%	0%	3%[46.1 µM]	-1%
COCCCNC(=O)CN(CCc1ccccc1)S(=O)(=O)c1ccc(C)cc1	9%	/	/	10%	13%	/	8%[46.1 µM]	5%
CCS(=O)(=O)c1nc(S(=O)(=O)c2ccc(C)cc2)c(NCCCN2CCCC2=O)s1	13%	/	/	/	4%	4%	/	0%
O=C(Cn1cnc2sc3c(c2c1=O)CCCC3)NCC(=O)Nc1ccc(F)cc1F	13%	/	/	-16%[46.1 µM]	-4%	-4%	?	1%
COc1ccc(-c2cc(CNC(C)=O)on2)cc1	26%	3.6%	3%	?	26%	7%	-22%[46.1 µM]	2%
CN1CCC(NC(=O)c2cccc(Oc3ccccc3)c2)CC1	-2%	/	/	/	-23%	-7%	/	3%
COC(=O)/C(=C/c1c[nH]c2ccccc12)[N+](=O)[O-]	-12%	-2.0%	-5%	-2%	/	-17%	13%	-1%
O=C(O)c1cc(N2C(=O)C3CC=CCC3C2=O)ccc1NCc1cccnc1 (stereo unspecified)	23%	2.2%	0%	-1%	5%	1%	3%	5%
Cc1cc(C)cc(N2C(=O)NC(=O)/C(=C/c3cccn3-c3ccc(Cl)cc3)C2=O)c1	9%	-1.0%	?	?	14µM*	6%	?	-39%
Cc1ccc(SCC(=O)c2c(C)nc3cc(C)ccn23)cc1	-2%	/	/	/	-13%	-7%	/	-1%
CCOc1ccc(NC(=O)CCC(=O)Nc2nnc(CC)s2)cc1	-2%	/	/	2%[46.1 µM]	-6%	-7%	19%[46.1 µM]	-1%
Cc1ccc(CSc2nnc(-c3cccc(S(=O)(=O)N4CCOCC4)c3)n2CC(C)C)cc1	12%	-2.5%	?	?	?	-7%	?	7%
Cc1cc(=O)[nH]c2nnc(SCc3ccc(F)cc3)n12	/	-0.6%	11%	7%[46.1 µM]	2%	/	/	/
CCCn1c(C(O)c2cc(OC)c(OC)c(OC)c2)nc2ccccc21 (stereo unspecified)	-7%	/	/	/	3%	-7%	/	5%
CCC(Sc1nccn1C)C(=O)Nc1ccc(Cl)cn1 (stereo unspecified)	-6%	/	/	-6%	-10%	-3%	-5%	0%
Nc1cccc2c1C(=O)N(C(=O)c1ccco1)C2=O	2%	/	/	16%[46.1 µM]	-15%	1%	3%[46.1 µM]	0%
COc1ccc(CN2CCN(C(=O)COc3ccc4ccccc4c3)CC2)c(OC)c1	-8%	/	/	/	-25%	-18%	/	-4%
O=C(Nc1cccnc1)c1ccc(COc2ccccc2Cl)o1	-5%	4.2%	2%	?	?	-69%	?	-3%
O=C(NC1CCCC1)C(c1ccncc1)N(CC1CCCO1)C(=O)Cn1nnc(-c2cccs2)n1 (stereo unspecified)	10%	4.8%	8%	18%	92%	-19%	-19%	-3%
CCOC(=O)C(=O)/C(=C\N(C)C)c1onc(-c2c(Cl)cccc2Cl)c1C(=O)OC	7%	-1.7%	23%	0%	-20%	13%	-2%	-6%
CCNc1nc(NCC)n2c(SCc3ccc(F)cc3)nnc2n1	0%	-1.5%	-6%	10%	-12%	-2%	3%[46.1 µM]	2%
C=CCc1c(C)nc(N2CCSCC2)[nH]c1=O	1%	/	/	0%	-4%	3%	7%	2%
O=C(NC1CCN(c2ncccn2)CC1)c1cccc(F)c1	-5%	/	/	/	-9%	-1%	/	-2%
COC(=O)/C=C1/SC(=Nc2ccc(C)cc2C)NC1=O	15%	3.9%	-2%	-17%	?	7%	-3%[46.1 µM]	4%
CCC(C)[C@H](NC(=O)N1CCC(C)CC1)C(=O)O (stereo partly specified)	3%	/	/	-7%	-5%	0%	-7%[46.1 µM]	2%
CCC(=O)Nc1cc(C)c(NC(=O)C23CC4CC(CC(C4)C2)C3)cn1	22%	-2.1%	-18%	0%	-10%	12%	-18%	13%
CC(=O)c1ccc(NC(=O)CSc2nnc(-c3ccco3)o2)cc1	36%	/	/	4%	27%	-5%	23%[46.1 µM]	0%
Cc1ccc2nc(COc3ccccc3NC(=O)Nc3ccc(F)c(Cl)c3)cc(=O)n2c1	/	3.3%	4%	11%[46.1 µM]	3%	/	/	/
CS(=O)(=O)c1ncc(Cl)c(C(=O)N2CCN(c3cccc(Cl)c3)CC2)n1	/	-12%	?	?	18µM*	/	?	/
Cc1cccc(NCc2nc3ccccc3n2CCOc2ccccc2C)c1	/	-8.5%	-8%	-23%[46.1 µM]	8%	/	?	/
O=C(Oc1cccc(-n2cnnn2)c1)c1sc2ccccc2c1Cl	-3%	2.4%	-23%	-1%	22%	-26%	-8%	3%
CCOc1ccc(NC(=O)c2sc3nc4n(c(=O)c3c2C)CCC4)cc1	5%	-1.6%	-4%	?	-17%&-9%	0%	-4%&-4%[46.1 µM]	-24%
CCOC(=O)c1c(C)c(C(=O)NCCCN2CCCC2=O)c(C)n1CC	2%	2.0%	-3%	1%	16%	-3%	-4%	6%
O=c1cc(-c2ccccc2)c2ccc3c(c2o1)CN(Cc1cccc(Cl)c1)CO3	/	-1.1%	-11%	4%[46.1 µM]	-11%	/	2%[46.1 µM]	/
CC(C)(C)S(=O)(=O)/C(C#N)=C/c1sccc1C1OCCO1	-4%	/	/	-5%	2%	5%	4%	0%
FCCCOc1ccc(-c2nccc(-c3ccccn3)n2)cc1	?	/	/	/	51%[activator]	-7%	/	-1%
CC(C)Oc1ccc(S(=O)(=O)N2CCCCC2)cc1NC(=O)C1CSC2(C)CCC(=O)N12 (stereo unspecified)	-12%	/	/	4%	-13%	/	?	2%
CC(NC(=O)COC(=O)c1ccc(S(=O)(=O)N2CCOCC2)cc1)c1ccccc1 (stereo unspecified)	-18%	/	/	7%	-6%	/	?	7%
Nc1nnc(SCc2ccc(Cl)cc2)s1	9%	-2.3%	15%	17%	-10%	17%	6%	11%
CC(=O)c1c(C)oc2ccc(NS(=O)(=O)c3ccccc3)cc12	0%	/	/	-2%	-9%	-3%	-20%[46.1 µM]	7%
CC(C)(CO)CNC1CCCN(C2Cc3ccccc3C2)C1 (stereo unspecified)	1%	/	/	/	-29%	8%	-53%[46.1 µM]	-2%
CCC1CCCCN1Cc1nc2c(c(=O)n(C)c(=O)n2C)n1Cc1ccccc1 (stereo unspecified)	3%	-4.2%	9%	/	?	-89%	/	-7%
